Screening results from PubChem.
StopGo RLuc – Primary qHTS Assay for Foot and Mouth Disease Virus Antivirals against NCGC Sytravon and CBC Compound Libraries: Renilla Luciferase Signal; HEK cells with a luciferase reporter of 2A StopGo recoding; Potency, µM (titrated, usually from 57.5 µM), inactives show top-dose signal change, negative = less light; hit rate 0.32% among 120,000; AID 1745857, 2022; active means well fitted falling curve with a large enough effect; inconclusive means small, poorly fitted or top-dose-only effect; inactive means no such curve, though single readings can be large or run the other way; further: nearly all actives have a fitted effect of over 55% in size; overnight with compound
StopGo FLuc – Primary qHTS Assay for Foot and Mouth Disease Virus Antivirals against NCGC Sytravon and CBC Compound Libraries: Firefly Luciferase Signal; Potency, µM (highest dose often 57.5 µM), for inactives: top-dose signal change, negative = less light; HEK cells with a luciferase reporter of 2A StopGo recoding; hit rate 0.23% among 120,000; AID 1745856, 2022; active = well fitted falling curve with a large enough effect; inconclusive = small, poorly fitted or top-dose-only effect; inactive = no such curve, though single readings can be large or run the other way; further: nearly all actives have a fitted effect of over 60% in size; overnight with compound
Active calls of the source: *; ? = inconclusive; [ ] = dose if it differs, or a comment. On the % scale 0 is the no-effect control and ±100 the full control effect; potency means the concentration at half of the fitted maximal effect. This is a subset, so the mix of outcomes need not match the whole.

SMILES	StopGo RLuc	StopGo FLuc
CC(NC(=O)Cn1c(=O)oc2cc(S(=O)(=O)NCc3ccccc3)ccc21)c1ccccc1 (stereo unspecified)	99.4%[activator]	-14.3%
COc1ccc2nc(C)c(C(=O)Nc3cccc(C)n3)cc2c1	23.4%	68.2%[activator]
Cc1oc2cc(OCC(=O)OC(C)C)ccc2c(=O)c1-c1ccc(Cl)cc1	-9.6%	-8.1%
O=C(CCc1ccccc1)Nc1ccc2c(c1)CCC2	18.8%	139.2%[activator]
CCCCN1C(C(C)=O)=C(OC(=O)c2ccccc2OC)c2ccccc2S1(=O)=O	10.5%	9.1%
CC[N+]1(C)CCC2C(C1)c1cc(C)ccc1N2C(=O)c1ccccc1Cl (stereo unspecified)	-2.7%	1.3%
Cc1ccc(Cn2c(C(=O)O)c(CNCc3ccccc3Cl)c3ccc(C)cc32)cc1	-3.6%	-1.3%
Cc1ccccc1CNC(=O)C1CCCN(c2nnc(-n3c(C)ccc3C)s2)C1 (stereo unspecified)	-3.8%	24.8%
COC(=O)c1ccn[nH]1	15.4%	25.5%
CC(C)CNC(=O)CN1CCN(Cc2cccc3cccnc23)CC1	0.2%	-13.9%

Part of the list above, in CSV form.
Structure,StopGo RLuc,StopGo FLuc
Cc1oc2cc(OCC(=O)OC(C)C)ccc2c(=O)c1-c1ccc(Cl)cc1,-9.6%,-8.1%
O=C(CCc1ccccc1)Nc1ccc2c(c1)CCC2,18.8%,139.2%[activator]
CCCCN1C(C(C)=O)=C(OC(=O)c2ccccc2OC)c2ccccc2S1(=O)=O,10.5%,9.1%
CC[N+]1(C)CCC2C(C1)c1cc(C)ccc1N2C(=O)c1ccccc1Cl (stereo unspecified),-2.7%,1.3%
Cc1ccc(Cn2c(C(=O)O)c(CNCc3ccccc3Cl)c3ccc(C)cc32)cc1,-3.6%,-1.3%
Cc1ccccc1CNC(=O)C1CCCN(c2nnc(-n3c(C)ccc3C)s2)C1 (stereo unspecified),-3.8%,24.8%
COC(=O)c1ccn[nH]1,15.4%,25.5%

Following part:
SMILES	StopGo RLuc	StopGo FLuc
CCc1ccc(NC(=O)C(=O)NCC(c2cccnc2)N2CCN(Cc3ccccc3)CC2)cc1 (stereo unspecified)	2.3%	-1.4%
CCc1ccc(C(=O)N2CCN(c3cc(Cl)ccc3C)CC2)s1	-0.5%	22.5%
CCOc1ccc(OCC)c(NS(=O)(=O)c2cc(-c3cnc(C)o3)ccc2C)c1	0.0%	1.1%
Cc1cc(C)cc(NC2=CC(c3cccc(F)c3)N(c3cc(C)cc(C)c3)C2=O)c1 (stereo unspecified)	-2.0%	-8.0%
CCOC(=O)c1cc(-c2ccc(C)cc2)n(CC(=O)Nc2cc(C)ccc2OC)c1C	7.2%	15.3%
CC(NC(=O)c1nn(C)c(=O)c2ccccc12)c1ccc(Cl)cc1 (stereo unspecified)	-1.9%	-10.5%
CCCCN(CCCC)c1nc(-c2ccccc2)nc2ccccc12	-11.4%	4.3%
Cn1c(N)c(C(=O)c2cc(-c3ccc(Cl)cc3)nc3ccccc23)c(=O)[nH]c1=O	-18.1%	25.3%
CCC(C(=O)N1CCN(c2ccccc2F)CC1)n1nc(C)c2sc3ccccc3c2c1=O (stereo unspecified)	6.3%	-19.9%
O=C(O)c1ccccc1Oc1ccccc1	-3.1%	-5.8%

In the list so far, these contain an aryl methoxy group:
SMILES	StopGo RLuc	StopGo FLuc
COc1ccc2nc(C)c(C(=O)Nc3cccc(C)n3)cc2c1	23.4%	68.2%[activator]
CCCCN1C(C(C)=O)=C(OC(=O)c2ccccc2OC)c2ccccc2S1(=O)=O	10.5%	9.1%
CCOC(=O)c1cc(-c2ccc(C)cc2)n(CC(=O)Nc2cc(C)ccc2OC)c1C	7.2%	15.3%

Next part
SMILES	StopGo RLuc	StopGo FLuc
COc1ccccc1NC(=O)/C(C#N)=C/c1coc2ccc(Cl)cc2c1=O	63.8%[activator]	-15.1%
COc1ccc(CN2C(=O)C(NC(=O)c3cccc(C)c3)(C(F)(F)F)N=C2c2ccccc2)cc1 (stereo unspecified)	21.2%	-5.4%
O=C(O)C(S)C(S)C(=O)O (stereo unspecified)	-1.8%	11.7%[11.5 µM]
O=C(COC(=O)c1n[nH]c(=O)c2ccccc12)NCc1ccccc1	33.9%[activator]	20.1%
CCCOc1ccc(CNC(=O)CCCn2ncn3c(cc4sc(CC)cc43)c2=O)cc1	-12.5%	?
CCOc1ccc(-n2nc(C(=O)N(C)c3ccccc3OCC)c3ccccc3c2=O)cc1	0.0%	19.9%
CC1=C(c2ccc(F)cc2)S(=O)(=O)N=C1N1CCC(C(=O)NCCc2ccco2)CC1	1.4%	5.4%
CCOC(C(=O)N(CC)CC(=O)NCc1cccs1)(c1ccccc1)c1ccccc1	23.3%	-14.2%
CCN(CC)c1ccc(/C=N/S(=O)(=O)c2cccs2)cc1	-0.1%	6.0%
CCOc1cccc(C(=O)Nc2cc(-c3ccc(C)cc3)no2)c1	3.4%	16.7%
Cc1ccc2nc(-c3cccc(NC(=O)c4cccc5ccccc45)c3)oc2c1	-5.7%	14.5%
NS(=O)(=O)c1ccc(CCNc2ncnc3c2cnn3-c2cccc(Cl)c2)cc1	-25.8%	20.4%
COc1cccc(CSCC(=O)NC(C)(C#N)C(C)C)c1 (stereo unspecified)	4.3%	6.4%
COc1ccc(-c2nnc(SC(C)C(=O)NC3CCCCC3)o2)cc1OC (stereo unspecified)	16.7%	19.7%
CC(C(=O)O)c1ccc2c(c1)[nH]c1ccc(Cl)cc12 (stereo unspecified)	-5.7%	-4.1%[11.5 µM]
Cc1cccc(Cn2cnc3c2c(=O)n(C)c(=O)n3C)c1	?	?
COc1ccc2c(C)c(CC(=O)N3CCN(c4ccccn4)CC3)c(=O)oc2c1OC	-9.6%	-12.5%
COC(=O)CNC(=O)CSc1nc2ccccc2nc1C	-15.0%	-3.7%
O=C(NCCCCc1ccccc1)C12CC3CC(CC(C3)C1)C2	-8.8%[1.06 µM]	108.1%[activator]
Cc1ccc(OCc2nc3ccc(Cl)cc3[nH]2)cc1C	-25.5%	116.4%[activator]
Cn1c(=O)n(C)c2cc(SCc3ccco3)c(NC(=O)c3ccccc3)cc21	3.8%	0.0%
Cc1ccc(-c2noc(-c3occc3Br)n2)cc1	7.8%	193.4%[activator]
Cc1ccc(C)c(N2CC(C(=O)OCC(=O)c3ccc(Br)cc3)CC2=O)c1 (stereo unspecified)	5.1%	15.2%
CCOCCCNC(=O)C1CCNCC1	1.2%	6.0%
CC(C)c1ccc(NC(=O)c2cnn3c(C(F)F)cc(-c4ccccc4)nc23)cc1	-3.0%	-9.6%
CC1CCN(S(=O)(=O)c2ccc(-c3nc(C#N)c(NCc4ccco4)o3)cc2)CC1	39.4%[activator]	-4.5%
Cc1cc(C)cc(Oc2nc(-c3ccncc3)nc3ccccc23)c1	-9.2%	0.2%
CCOC(=O)C(NC(=O)/C=C/c1ccc(C(N)=O)cc1)C(C)C (stereo unspecified)	-6.8%	-10.4%
COc1cccc2cc(C(=O)Nc3c(C)cccc3C)c(=O)oc12	3.2%	131.8%[activator]
Cc1ccc(OCC(=O)Nc2ccc(Cl)cc2C(=O)c2ccccc2)c(Br)c1	-4.7%	-7.4%
O=C(N/N=C/c1cccs1)C(c1ccccc1)c1ccccc1	-2.1%	-8.1%
O=S(=O)(NCc1ccccc1Cn1cccn1)c1ccc(Cl)c(C(F)(F)F)c1	190.4%[activator]	-10.3%
Cc1ccc(CNC(=O)c2cnc3ccccc3n2)cc1	?	0.0%
S=C(Nc1ccccc1I)NC1CC1	7.5%	0.0%
CCC(=O)N1CCc2cc(Br)cc(S(=O)(=O)N3CCC(C(=O)Nc4ccc(OC)cc4)CC3)c21	46.9%[activator]	-14.4%
O=C(CN1C(=O)c2ccccc2S1(=O)=O)c1ccccc1F	49.6%[activator]	?
Cc1cnc2c(S(=O)(=O)NCC3CCN(C4CC4)C3)cccc2c1 (stereo unspecified)	47.5%[activator]	-15.1%
Fc1ccc(OCc2cc(-c3ccccc3)on2)cc1	2.0%	200.1%[activator]
O=C(Cn1c(SCC(=O)Nc2ccc(F)cc2)nc2ccccc21)NCc1ccccc1Cl	61.3%[activator]	5.0%
CCc1ccc2c(c1)C(O)(CC(=O)c1ccc(Br)cc1)C(=O)N2 (stereo unspecified)	13.4%	15.2%
COc1ccc(C(=O)Oc2cc(-c3ccc4c(c3)OCO4)cc(=O)c3c(C)oc(C)c23)cc1	-15.2%	-11.5%
COc1ccc(/C=C/c2nc3cc(C)ccc3s2)c(OC)c1	-5.4%[1.06 µM]	243.4%[activator]
N#C/C(=C/c1cc(Br)ccc1OCc1ccccc1C#N)c1cccc(F)c1	72.2%[activator]	41.0%[activator]
CC(C)C(NC(=O)C1CCCCC1)C(=O)O (stereo unspecified)	8.9%	2.6%
COc1ccc(-c2nc3n(n2)C(c2ccc(OC)c(OC)c2)C(C(=O)Nc2cccnc2)=C(C)N3)cc1 (stereo unspecified)	-18.0%	-8.6%
O=C(CSc1nc(-c2ccccc2)c(-c2ccccc2)o1)N1CCC1	0.9%	-4.9%
COc1ccc2cnn(CC(=O)Nc3ccc(Br)cc3)c(=O)c2c1OC	-7.9%	-4.8%
Cc1c(C(=O)NCc2ccccc2)sc2nc[nH]c(=O)c12	-4.7%	3.6%
O=C(CN(CCc1ccccc1)S(=O)(=O)c1ccccc1)NCc1ccc(Cl)cc1	147.7%[activator]	-12.8%
COCC(=O)N1CCN(Cc2nc(C)no2)CC1	-3.0%	-2.7%
(cont.)
SMILES	StopGo RLuc	StopGo FLuc
Cc1ccc(C2CCCN2Cc2ccc(C#N)cc2)cc1 (stereo unspecified)	?	?
O=C(/C=C/c1ccc(Br)cc1)c1cccc(O)c1	?	-47.5%
COC(=O)c1ccc(Cl)c(Cl)c1	9.5%	7.8%
CC(=O)c1ccc(S(=O)(=O)Nc2ccc(-c3cn4c(C)csc4n3)cc2)cc1	36.3%[activator]	32.6%[activator]
Cc1ccc2[nH]c(C(=O)Nc3ccc4c(c3)OCCO4)cc2c1	?	17.1%
COc1ccc(Cn2ccc3nc(C)c(C(=O)Nc4ccc(OC(F)(F)F)cc4)cc3c2=O)cc1	-4.5%	-4.8%
Cc1ccc(C)c(NC(=O)CSc2ccc3nc(-c4ccccc4)cn3n2)c1	-13.8%	44.3%[activator]
COc1nnc(-c2ccc(N3CCOCC3)c(NC(=O)COc3cccc(C)c3)c2)c2ccccc12	-12.7%	-9.7%
Cc1ccc(-c2cnc(CCC(=O)Nc3cccc(OCC(N)=O)c3)o2)cc1	-3.7%	0.0%
CCOc1ccc(C(=O)Nc2ccc(Br)c(C)n2)cc1Cl	2.0%	34.6%[activator]
CCOc1ccccc1N(CC)C(=O)Cn1nc(Cc2cccnc2)c2ccccc2c1=O	23.4%	6.7%
CCOC(=O)c1cnc2c(C)cccc2c1Nc1ccc(OC(C)C)cc1	-12.7%	-16.4%
CCOC(=O)c1c(C)sc2c1OC(N)=C(C#N)C21C(=O)N(Cc2ccccc2F)c2ccccc21 (stereo unspecified)	?	?
Cc1ccc(NC(=O)CCc2nc(C(C)(C)C)no2)nc1	-6.2%	88.3%[activator]
COC(=O)c1cc2sc(Cl)cc2n1Cc1nc(-c2ccccc2F)oc1C	-2.8%	2.5%
CC1CC(Sc2ccc(C(F)(F)F)cn2)C(=O)O1 (stereo unspecified)	13.6%	6.5%
O=C(Nc1ccccc1)c1cn(-c2ccc3c(c2)OCCO3)nn1	1.0%	4.9%
CCCNC(=O)COC(=O)c1nn(Cc2ccccc2)c(=O)c2ccccc12	0.0%	46.4%[activator]
CCN1C(=O)C2(c3cc(C)ccc31)N1CC3(C)CN2CC(C)(C1)C3=O (stereo unspecified)	-0.3%	3.4%
COc1ccc(-c2nc(CNC(=O)NC(C)C)c(C)o2)cc1	3.7%	49.0%[activator]
CCOc1ccc(-n2nc(CO)c(C(=O)NCc3ccc4c(c3)OCO4)n2)cc1	28.7%	62.0%[activator]
COc1ccc(CNc2cc(-c3ccc(OC)cc3)nc3nncn23)cc1	-20.9%	-16.8%
O=C(CSc1ncc2c(n1)-c1ccccc1N(Cc1ccc(F)cc1)S2(=O)=O)NCc1ccccc1	-12.1%	-10.1%
CC(=O)c1cc2c(cc1NC(=O)c1cccc(F)c1)OCCO2	2.8%	44.9%[activator]
Fc1ccc(OCc2coc(-c3ccccc3)n2)c(Br)c1	-6.6%	209.0%[activator]
COC(=O)c1ccc(COC(=O)c2cccc3ccccc23)cc1	25.8%	34.1%[activator]
CCOc1ccc(S(=O)(=O)c2cn(Cc3ccccc3)c3ccc(OCC)cc3c2=O)cc1	2.2%	-1.4%
Nc1ncnc2c1ncn2[C@@H]1O[C@H](CO)[C@@H](O)[C@H]1O	12.8%	4.7%
COc1ccc(NC(=O)c2cc(S(=O)(=O)N3CCCC(C)C3)cn2C)c(OC)c1 (stereo unspecified)	28.7%	-3.2%
CCOc1c(Cl)cc(C(=O)N2CCN(C(=O)OC(C)(C)C)CC2)cc1OC	-11.5%	5.7%
O=C(c1nc2nc(-c3ccco3)cc(C(F)(F)F)n2n1)N1CCCCCC1	25.8%	9.2%
COc1cc(OC)cc(C(=O)Oc2cccc3cccnc23)c1	4.6%	4.1%
CCCN1C(=O)C(O)(CC(=O)c2ccc(OC)c(OC)c2)c2ccccc21 (stereo unspecified)	-5.7%	-18.0%
Cc1cccc(CC(=O)NCc2nc3cccnc3n2Cc2ccc(F)cc2)c1	29.0%	-3.0%
COc1ccc(CN2C(C(=O)NCC(C)C)CSCCS2(=O)=O)cc1 (stereo unspecified)	3.6%	-7.0%
COC(=O)C12CCC(CC1c1ccccc1)OC2=O (stereo unspecified)	0.0%	0.2%
